TRPV1 PAM – HTS Assay for Compounds that Act as Potentiators of the Vanilloid Receptor 1 | potentiation, % at 8.33 µM | Transient receptor potential cation channel subfamily V member 1 (Homo sapiens), Q8NER1 | TRPV1-expressing cells, Fluo-8 calcium influx, capsaicin EC20 potentiation; host cell line not named in the record; control for the full effect not named in the record | 320,000 tested, 0.02% active; active means potentiation above 80%; inconclusive means 30% to 80%; inactive means below 30%; further: 0% is about no effect
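TRPV1-expressing cells were cultured overnight at 35.5C and loaded with Fluo-8 calcium dye for 40 to 90 min at room temperature. After a 10 s baseline, compound was added and calcium influx was read kinetically for 3 min (ex 480/em 520 nm).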
TRPML1 agonist – qHTS for Agonists of the Human Mucolipin Transient Receptor Potential 1 (TRPML1) | TRPML1-expressing cells, Ca2+ dye fluorescence, FDSS; host cell line not named in the record; reference of the full effect not given here | activation, % (no concentration beside the values) | Mucolipin-1 (Homo sapiens), Q9GZU1 | 410,000 tested, 0.12% active; in the data active = activation above about 50%; inconclusive = about 30% to 50%; inactive = below about 30%; further: 0% is about no effect; the text of the record puts the active cut at 80%
Target sequence (Q9GZU1 whole entry, looked up): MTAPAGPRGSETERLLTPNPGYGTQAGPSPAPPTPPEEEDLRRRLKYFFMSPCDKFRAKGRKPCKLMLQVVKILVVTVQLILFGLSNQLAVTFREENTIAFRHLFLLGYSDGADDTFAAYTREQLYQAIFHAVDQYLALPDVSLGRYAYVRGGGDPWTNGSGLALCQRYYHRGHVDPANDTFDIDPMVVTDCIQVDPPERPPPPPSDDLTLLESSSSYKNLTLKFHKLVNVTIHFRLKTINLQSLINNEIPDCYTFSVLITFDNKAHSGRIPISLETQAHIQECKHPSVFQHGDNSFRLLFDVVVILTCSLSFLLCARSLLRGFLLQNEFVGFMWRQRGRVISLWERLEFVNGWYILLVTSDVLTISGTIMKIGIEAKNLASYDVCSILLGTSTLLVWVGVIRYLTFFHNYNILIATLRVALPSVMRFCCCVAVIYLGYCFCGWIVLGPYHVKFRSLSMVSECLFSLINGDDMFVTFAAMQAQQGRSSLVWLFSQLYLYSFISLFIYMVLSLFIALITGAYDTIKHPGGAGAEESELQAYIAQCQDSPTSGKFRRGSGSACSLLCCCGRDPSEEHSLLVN
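Tet-induced TRPML1-DL cells, 1,500 per well, cultured overnight, were loaded with a no-wash Ca2+ dye for 45–90 min. Calcium fluorescence was recorded on the FDSS for 110 s after compound addition, before the EC80 agonist (4 uM 54-4) was added.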
PINK1 expr mod – A Quantitative High throughput Screen to Identify Chemical Modulators of PINK1 Expression. PINK1 immunofluorescence, high-content cytometry, 24 h. Potency, µM (doses to about 76.6 µM), inactives show at the highest dose activation (PINK1 increase), actives largely listed as activators. 410,000 tested, 0.2% active. AID 624263, 2012; active = well fitted activation curve with a large enough effect; inconclusive = small, poorly fitted or top-dose-only effect; inactive = flat fitted curve, though single readings scatter; cell line not stated here;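 further: potency means the concentration at half of the fitted maximal effect; % of control where 0% means no effect; nearly all actives have a fitted effect of over 65% in size; a mitochondrial uncoupler was the plate control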
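Readout is PINK1 immunofluorescence, quantified alongside mitochondrial, cell and nuclear markers by laser-scanning microplate cytometry. Cells from a stable line were exposed to compound titrations (5 concentrations) for 24 hours, with CCCP controls.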
TRPML1 inh – qHTS for Inhibitors of the Human Mucolipin Transient Receptor Potential 1 (TRPML1); activity change, negative = inhibition, % (test concentration not listed); TRPML1-inducible cells, Ca2+ dye fluorescence, FDSS; hits give low values; inhibition of EC80 agonist-evoked calcium signal; Mucolipin-1 (Homo sapiens), Q9GZU1; 390,000 tested, 0.02% active; in the data active means activity change below about -50%; inconclusive means about -30% to -50%; inactive means above about -30%;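 further: stimulus is agonist 54-4 at its EC80 concentration; on the % scale 0 is the no-effect control and ±100 the full control effect; compound concentration not given in the record; the text of the record puts the active cut at -80%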
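Tet-induced TRPML1-DL cells loaded with Ca8 no-wash calcium dye were read kinetically on FDSS. Compound addition was followed by EC80 agonist 54-4 (4 uM final); inhibition was read over 110 s.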
Sfp inh – qHTS Assay for Inhibitors of Bacillus subtilis Sfp phosphopantetheinyl transferase (PPTase). Biochemical Sfp PPTase activity, qHTS. Potency, µM, inactives show max response, negative = inhibition, usual class: inhibitors. 310,000 tested, 3.5% active. AID 1490, 2009; active means well fitted inhibition curve with a large enough effect; inconclusive means small, poorly fitted or top-dose-only effect, or another doubt; inactive means no such curve, though single readings can be large or run the other way;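 further: the enzyme is Sfp with the accession as filed and its product quenches rhodamine fluorescence; potency means the concentration at half of the fitted maximal effect; 0% = enzyme reaction without inhibitor and -100% = no enzyme wells; top concentration of the series not given in the record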
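Buffer: 50 mM Hepes-Na pH 7.6, 10 mM MgCl2, 0.01% Nonidet P-40, 0.01% BSA. Enzyme 15 nM, pre-exposed to compound 15 min; substrates then added and fluorescence change tracked over 30 min.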
ClpP mod – qHTS Assay for Activators of ClpP | ATP-dependent Clp protease proteolytic subunit (Bacillus subtilis (strain 168)), P80244 | purified B. subtilis ClpP, FRET peptide cleavage, 20 min | Potency, µM (highest dose often 57.5 µM), without a hit: at the highest dose activity change, negative = active | 340,000 tested, 1.9% active | AID 651965, 2013; active = well fitted falling curve with a large enough effect; inconclusive = small, poorly fitted or top-dose-only effect; inactive = no such curve, though single readings can be large or run the other way; further: potency means the concentration at half of the fitted maximal effect; the source files actives as falling curves though it sought activators and does not explain the sign; nearly all actives have a fitted effect of over 65% in size; many hits overshoot -100%
Target sequence (P80244 whole entry, looked up): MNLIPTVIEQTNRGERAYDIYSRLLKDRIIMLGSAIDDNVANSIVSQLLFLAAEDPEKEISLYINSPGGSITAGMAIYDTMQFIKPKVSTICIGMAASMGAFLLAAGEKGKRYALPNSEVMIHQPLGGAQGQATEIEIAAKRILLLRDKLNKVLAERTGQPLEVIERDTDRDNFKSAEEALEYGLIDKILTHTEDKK
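Purified B. subtilis ClpP, 10 microg/mL final in Tris/HCl pH8 with KCl, BSA, glycerol and Tween-20, cleaved an Abz/nitrotyrosine-quenched decapeptide. Fluorescence (ex 320, em 430) was read at 0 and 20 min at room temperature. Delta was normalized to 5.8 microM ADEP and DMSO/no-enzyme controls.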
Menin-MLL FL inh – qHTS Assay for Inhibitors Targeting the Menin-MLL Interaction in MLL Related Leukemias: Competition With Fluorescein Labeled MLL-derived Peptide; Fluorescence polarization, fluorescein-MLL peptide displacement from menin; FP activity change, % at 61.4 µM; 290,000 tested, under 10 active; AID 1766, 2009; inconclusive = falling polarisation curve, or a change in total fluorescence; inactive = total fluorescence flat and polarisation flat or rising; no compound was filed as active; the % refers to the polarisation; negative = inhibition;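 further: % of control where 0% means no effect; inhibitors lower the polarisation; unlabelled MLL peptide was the positive control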
The depositor's hits bear a star; ? = inconclusive; · = no result given; & = joins results of further samples; [ ] = dose if it differs, or a comment.

SMILES,TRPV1 PAM,TRPML1 agonist,PINK1 expr mod,TRPML1 inh,Sfp inh,ClpP mod,Menin-MLL FL inh
Cc1c(C(=O)OCCOc2ccccc2)[nH]c2c1C(=O)CC(c1ccccc1Cl)C2 (configuration not stated),·,-0.1,7.4%,6,·,-9.5%,·
CCc1ccc(OCCCSc2nc(-c3ccc(C(C)(C)C)cc3)nc3cc(=O)[nH]n23)cc1,·,-0.1,3.6%,-3,·,-1.7%,·
Cc1cc(C)c(C)c(OCC(=O)NCCN(C)C)c1,-9,0.1,4.8%,-25,2%,4.5%,-2.1
CC1CN(C(=O)c2nn(C)cc2[N+](=O)[O-])CC(C)O1 (configuration not stated),7,-0.3,-0.5%,21,14%,-1.3%,-1.4
O=C(CCS(=O)(=O)c1cccc2nonc12)Nc1ccc(Br)cc1,2,-1.4&-0.9,3.2%&1.1%,-1&-9,12%,0.2%&2.7%,-1.2
CCc1ccccc1NC(=O)CSc1nc2c(oc3ccccc32)c(=O)n1C,·,-0.7,2.0%,3,·,0.9%,·
CCC[N+]1(CC#CC(O)(c2ccccc2)C2CCCCC2)CCCCC1 (configuration not stated),-2,-0.6,0.6%,-1,-10%,2.2%,3.3
COc1ccc(NS(=O)(=O)c2cc(NC(=O)c3cncc(Br)c3)ccc2OC)cc1,·,0.5,-0.4%,8,·,28µM*,·
CCn1cc(C(=O)OCC(=O)c2cc(C)n(-c3ccccc3)c2C)c(=O)c2ccc(C)nc21,-1,1.7,0.3%,-11,?,?,1.0
Cc1cccc(-c2noc(CCC(=O)NCc3ccccc3)n2)c1,-1,0.7,2.9%[38.3 µM],-9,7%,-1.3%,1.6
C=CCn1c(SCC(=O)NC2CCCCC2)nnc1-c1cccnc1,-5,0.5,-1.9%,-18,5%,-4.0%,-1.1
Cc1c(C(=O)Nc2c(C)n(C)n(-c3ccccc3)c2=O)oc2ccc(Cl)cc12,2,0.1,0.0%,-11,13%,1.4%,·
Cc1ccc2scc(N3CCN(c4cccc(C(F)(F)F)c4)CC3)c(=O)c2c1,8,2.2,-0.3%,17,·,-2.5%,·
CCCCn1c(SCC(=O)NCCCOC)nc2c(sc3ccccc32)c1=O,-7,1.4,0.3%,-14,·,?,·
COc1ccc(C(=O)/C=C/C(=O)N(CC(=O)NC2CCCCC2)Cc2ccccc2OC)c(O)c1,9,-0.5,-2.3%,-2,3.2µM*,·,-2.0

New compounds follow
SMILES,TRPV1 PAM,TRPML1 agonist,PINK1 expr mod,TRPML1 inh,Sfp inh,ClpP mod,Menin-MLL FL inh
Fc1cccc(CN2CCc3nc(Nc4ccc5c(c4)OCCO5)ncc3C2)c1F,·,0.4,-0.6%,11,·,-1.3%,·
CCCN(CCC)c1nc2c(C)cccn2c(=O)c1/C=C1/SC(=S)N(Cc2ccco2)C1=O,24,18,6.7%,-6,-19%,·,?
Cc1ccc(CN2CCN(Cc3cnc(C)s3)CC2CCO)cc1 (configuration not stated),-2,0.3,0.2%,18,8%,·,-0.4
Cc1occc1-c1nc(-c2ccncc2)no1,-3,0.5,-5.9%[38.3 µM],5,6%,-3.0%,0.6
Cc1ccc(NC(=O)Cn2cccc2C2=NC(c3ccccc3)CO2)c(C)c1 (configuration not stated),8,2.2,0.4%,21,-17%,0.9%,5.5
Cc1cccc(N(CC(=O)NCCC2=CCCCC2)S(C)(=O)=O)c1C,-13,-0.4,3.4%[38.3 µM],-7,0%,0.1%,0.9
Fc1cccc(Cl)c1Cn1nnc2c(N3CCC4(CC3)OCCO4)ncnc21,-8,1.8,-2.5%,-4,-4%,-2.2%,-0.3
Cc1cc(C)c[n+](-c2[nH]c(=O)sc2/C=N/NC([S-])=Nc2ccccc2)c1,21,5.4,2.2%,7,-29%,1.2%,?
[O-][n+]1c2c(c3c4non(O)c4ccc31)CCCC2,-4,0.8,-2.3%[38.3 µM],-8,-6%,-1.9%,3.8
Cc1ccn(CCC(=O)Nc2ccc(-c3ccno3)cc2)n1,-10,0.3,0.7%,6,13%,-2.4%,-0.6
O=[N+]([O-])c1c(Nc2ccc(Br)cc2)ccc2nonc12,9,-1.8,12%,-4,13%,-0.5%,-0.1
C#CCOCCOCCOCCNc1nc(N2CCN(C(=O)[C@H](C)n3cc(CCC(=O)O)nn3)CC2)nc(N2CCN(C(=O)[C@H](Cc3ccc(O)cc3)n3cc(CCO)nn3)CC2)n1,·,-0.1,1.7%,-7,·,-0.3%,·
O=C(COC(=O)c1ccccc1OCc1ccc(Cl)cc1)NC1CC1,-10,0.2,-1.2%,10,-5%,-12%,1.7
N#CCc1ccc(NC(=O)Nc2cccc3ccccc23)cc1,-36,4.2,4.0%,-3,7%,-17%,1.7
CCCCCc1ccc(-c2ccc(=O)[nH]n2)cc1,-2,-0.7,-0.9%,-10,3%,-3.6%,0.2

New compounds follow
SMILES,TRPV1 PAM,TRPML1 agonist,PINK1 expr mod,TRPML1 inh,Sfp inh,ClpP mod,Menin-MLL FL inh
CCOC(=O)c1cc(S(=O)(=O)Nc2ccc(C)cc2Cl)[nH]n1,·,0.6,-0.5%,13,·,0.2%,·
Cc1ccc(C)c(NC(=O)c2cc(S(=O)(=O)NCc3ccccc3)ccc2F)c1,·,4.3,6.6%,-10,·,-2.7%,·
Cc1ccc(NC(=O)/C=C/c2ccco2)cc1F,·,1.1,16%,-15,·,0.1%,·
Oc1ccc(C[C@H]2CNC(=S)N2CC2CCCN2C[C@H](Cc2ccccc2)N2C[C@H](Cc3ccc(O)cc3)N(CCc3ccccc3)C2=S)cc1 (some centres not stated),·,-0.2,-0.6%,9,·,-3.7%,·
O=C(CNC1CCCCCC1)Nc1ccc(S(=O)(=O)NC2CC2)cc1,-26,-0.2,-0.6%[38.3 µM],-4,6%,0.7%,-2.0
CC1(Cc2ccccc2OC(F)(F)F)C(=O)Nc2ccc(-c3ccsc3)cc21 (configuration not stated),·,-0.7,-1.2%,·,·,0.6%,·
Nc1ccc(C(=O)Nc2nc3ccccc3s2)cc1,-5,-0.1,2.3%,-11,18%,4.7%,0.7
c1cc(-c2cc3cc4c(cc3cn2)OCO4)cs1,·,-0.3,-1.2%,-1,·,-27%,·
Cc1ccccc1OCc1nc(-c2ccc(NC(=O)c3ccco3)cc2)no1,8,2.9,11%,-16,18%,28µM*,1.2
CC(C)c1ccc(CNc2ccc([N+](=O)[O-])cn2)cc1,-17,-0.2,?,-16,0%,·,2.5
CCOc1ccccc1CNC(=O)C1CCCN(S(=O)(=O)c2ccc3c(ccn3C)c2)C1 (configuration not stated),·,0.5,-0.8%,22,·,-18%,·
CN(C(=O)Cn1cnc2sccc2c1=O)C1CCCCC1,3,1.3,0.9%,4,·,-2.8%,·
COc1ccc(C(C)(NC(C)=O)c2nc(-c3cnc4ccccc4c3)cs2)cc1 (configuration not stated),·,-0.4,0.7%,·,·,-17%,·
CC(C)(C)OC(=O)n1cccc1/C=C1\c2ccccc2C(=O)N1c1ccccc1,·,1.8,2.4%,12,·,-7.3%,·
CC1CCCN(C(=S)Nc2ccc3nc4n(c(=O)c3c2)CCCCC4)C1 (configuration not stated),-1,-0.3,1.7%,13,17%,1.0%,2.5

The closing 2 records of the part above lead into the next.
SMILES,TRPV1 PAM,TRPML1 agonist,PINK1 expr mod,TRPML1 inh,Sfp inh,ClpP mod,Menin-MLL FL inh
CC(C)(C)OC(=O)n1cccc1/C=C1\c2ccccc2C(=O)N1c1ccccc1,·,1.8,2.4%,12,·,-7.3%,·
CC1CCCN(C(=S)Nc2ccc3nc4n(c(=O)c3c2)CCCCC4)C1 (configuration not stated),-1,-0.3,1.7%,13,17%,1.0%,2.5
CCOC(=O)C1=C(CN2CCCCCC2)NC(=O)NC1c1cccc([N+](=O)[O-])c1 (configuration not stated),?,1.0,0.6%,-10,89µM*,1.1%,-1.1
O=C(Nc1ccccn1)c1ccc(Cl)c(S(=O)(=O)N2CCCC2)c1,0,-0.3,3.3%,-6,·,·,·
Cc1ccc(S(=O)(=O)N(C)C)cc1NC(=O)C(C)N(C)CCOc1ccc(Cl)cc1 (configuration not stated),9,2.4,0.1%,25,9%,·,-0.5
COc1ccc(-c2oc3ccccc3c(=O)c2OCC(=O)O)cc1,5,0.9,-0.9%,17,18%,·,-1.3
CCOc1ccc(C(=O)Nc2nnc(S(=O)(=O)N3CCCCC3)s2)cc1,4,0.3,0.6%,-5,23%,?,·
Cc1ccc(-n2c(C)c([N+](=O)[O-])c3ccc(O)c(CN(C)C)c32)cc1,5,0.7,-2.2%,0,18%,-1.6%,-0.7
COc1ccc(S(=O)(=O)NCC(c2ccco2)N2CCN(c3ccc(F)cc3)CC2)cc1C (configuration not stated),·,2.9,0.7%,-23,·,-5.1%,·
O=C(NCc1ccccc1)c1ccc2c(=O)n3c(nc2c1)CCCCC3,-3,1.1,2.7%,-9,23%,·,-1.6
CCC(C)[C@H](NC(=O)Nc1ccc(C(C)=O)cc1)C(=O)OC (some centres not stated),-3,-0.3,0.4%,28,8%,?,-2.7
CCc1ccc(-n2nc(CO)c(C(=O)NCCCCc3ccccc3)n2)cc1,·,2.9,-0.5%,6,·,?,·
O=C(Nc1cccc([N+](=O)[O-])c1)Nc1cccc([N+](=O)[O-])c1,-7,-0.1,21%,1,1%,·,-0.3
O=C(CCCCCn1c(=S)[nH]c2cc3c(cc2c1=O)OCO3)N1CCN(Cc2ccccc2)CC1,6,2.1,-0.1%,-7,7%,-2.4%,-2.0
CC(C)c1nn2c(=O)cc(COC(=O)c3ccccc3Cl)nc2s1,·,-0.8,2.1%,-14,·,-0.9%,·

Compound activity: PubChem BioAssay, National Center for Advancing Translational Sciences (NCATS)
